MenB inh: Mtb MenB enzyme inhibition | P9WNP5 | MenB enzyme assay, absorbance read-out; some hits fall short of the stated cut | inhibition, %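 (about 12 µg/mL by stock and volumes)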 | actives 0.43% (n = 100,000) | AID 540299;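 active = mean of two replicates above 30%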;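 note: 0% = no compound and 100% = wells with inactive enzyme; the first replicate is given; strong numbers were not always called active; inactives centre near -10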
Target sequence (P9WNP5 whole entry, looked up): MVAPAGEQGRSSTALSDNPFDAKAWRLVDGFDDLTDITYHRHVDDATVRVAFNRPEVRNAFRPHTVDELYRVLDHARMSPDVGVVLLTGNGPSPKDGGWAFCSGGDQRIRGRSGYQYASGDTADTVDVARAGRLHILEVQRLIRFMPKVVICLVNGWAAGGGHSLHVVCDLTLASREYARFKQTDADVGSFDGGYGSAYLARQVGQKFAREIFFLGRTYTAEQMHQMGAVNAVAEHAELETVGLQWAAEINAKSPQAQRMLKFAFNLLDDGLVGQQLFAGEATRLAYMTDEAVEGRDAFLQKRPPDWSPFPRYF
Mtb MbtI inh: MbtI salicylate synthase inhibition; P9WFX0; purified MbtI enzyme, fluorescence intensity read-out; inhibition, %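 (about 17 µg/mL by stock and volumes)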; actives 0.89% (n = 100,000); AID 493033;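 active = above 50% in both replicates, above 80% if mildly self-fluorescent; inactive = the rest, strongly fluorescent compounds included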;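 note: 0% = mean of negative and 100% = mean of positive controls; one replicate is shown; some compounds called inactive have numbers as strong as hits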
Target sequence (P9WFX0 whole entry, looked up): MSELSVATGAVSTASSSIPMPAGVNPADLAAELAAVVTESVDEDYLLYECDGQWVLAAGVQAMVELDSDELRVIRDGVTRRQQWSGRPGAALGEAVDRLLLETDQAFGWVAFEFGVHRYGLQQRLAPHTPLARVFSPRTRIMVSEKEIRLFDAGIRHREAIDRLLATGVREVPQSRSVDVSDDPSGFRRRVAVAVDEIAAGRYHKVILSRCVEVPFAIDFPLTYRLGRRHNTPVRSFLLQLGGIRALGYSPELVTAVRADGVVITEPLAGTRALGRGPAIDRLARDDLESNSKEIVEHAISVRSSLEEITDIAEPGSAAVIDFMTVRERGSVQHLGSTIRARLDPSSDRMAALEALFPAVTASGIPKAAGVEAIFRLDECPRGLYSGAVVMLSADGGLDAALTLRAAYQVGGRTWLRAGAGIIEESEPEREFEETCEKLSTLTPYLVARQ
PV pol inh: poliovirus RNA polymerase inhibition; % elongation, % (compound at 16.7 µg/mL); poliovirus polymerase elongation, fluorescence polarization; active compounds read low; actives 0.66% (n = 150,000); in the data active = % elongation below about 90%; note: some results filed as inactive read as strong as hits
PV pol inh intensity: recorded beside PV pol inh, whose call it bears; % elongation; measured here: total intensity read-out; formula for this scale not given here;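 total fluorescence in place of polarization; lower means less elongation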
An asterisk follows results filed as active; i = inactive; / = not tested or not shown.

SMILES	MenB inh	Mtb MbtI inh	PV pol inh	PV pol inh intensity
CC1CC(C)CN(S(=O)(=O)c2ccc3[nH]cc(C(=O)N4CCC5(CC4)OCCO5)c(=O)c3c2)C1 (configuration not stated)	-5	-9	102	108
CSc1nc2ccc(NC(=O)c3ccccc3-n3cnnn3)cc2s1	-3	12	103	110
Fc1cccc(F)c1-c1nnc(-c2ccccc2OC(F)(F)F)o1	-5	4	101	101
O=C(CSc1nc2ccc(N=Cc3ccccc3O)cc2s1)NCCOc1ccccc1	-18	/	107	135
CCCCn1c(CCCN2C(=O)c3ccccc3C2=O)nc2ccccc2c1=O	-18	-17	104	101
Cc1ccc(-c2csc(N/N=C/c3ccco3)n2)cc1	-32	53	100	99
CC(C)(C)NCC(C)(O)c1ccc(Br)cc1 (configuration not stated)	/	-9	102	107
CCN1CCN(c2ccc(N3CCN(C(=O)c4ccc(C(F)(F)F)cc4)CC3)nn2)CC1	0	-5	99	100
N=c1sccn1CC(=O)NCCc1ccc(Cl)cc1Cl	0	-10	104	114
CC(C)C(NC(N)=O)C(=O)Nc1cccc2ncccc12 (configuration not stated)	-29	2	103	120
COc1ccc(N(C(=O)c2ccccc2)S(=O)(=O)c2cccc3cccnc23)cc1	-24	12	105	106
CC(NC(=O)COc1ccc(-c2nnco2)cc1)c1ccc(Cl)cc1Cl (configuration not stated)	5	-6	106	106
CN(C)C(=S)SCC(=O)Nc1ccccc1	/	-5	101	98
c1ccc(Nc2ncnc3sc4c(c23)CCCC4)cc1	-32	33	104	105
N=C1c2ccccc2C(=O)C1c1ccccc1 (configuration not stated)	-26	17	99	99
O=C(COc1ccc(-n2cnnn2)cc1)NC(=O)NCc1ccccc1	-18	-24	109	109
CC1CCC(NC(=O)C2CCCN2S(=O)(=O)c2ccc3nc(-c4ccccc4)[nH]c3c2)CC1 (configuration not stated)	-16	43	104	104
COc1cc(NC(=O)CSC)cc(OC)c1	-27	3	101	102
C[n+]1ccc(/C=C/c2ccccc2F)c2ccccc21	-29	12	103	105
Cc1ccc2sc(NC(=O)/C=C/C(=O)O)nc2c1	-18	28	102	101
CN(C)c1ccc(/C=N/OCC(=O)N(C)c2ccccc2)cc1	-22	-190	94	98
Cc1ccc(NC(=O)CCn2c(=O)sc3ccccc32)cc1F	4	-6	99	102
CCN1/C(=C(/O)c2ccccc2)C(=O)c2ccccc2S1(=O)=O	-17	5	105	104
CCOC(=O)C1=C(CSc2nnc(C3CCCCC3)n2N)NC(=O)NC1c1ccccc1 (configuration not stated)	-24	-1	103	130
CCN(CC)S(=O)(=O)c1ccc(/C=C/C(=O)OCC(=O)N2CC(C)OC(C)C2)cc1 (configuration not stated)	-2	7	94	103
O=C1CC(C(=O)Nc2ccc(Cl)c(Cl)c2)NC(=NCc2ccco2)N1 (configuration not stated)	-73	-12	101	102
CC(=O)Nc1cc(C(C)C)c(O)c(C(C)C)c1	1	-4	99	99
CC1(C)CC2CC(C)(CN2C(=O)CSc2nnc(-c3cccs3)n2N)C1 (configuration not stated)	-11	-2	99	101
CC1(C)CC(=O)c2cc(NC(=O)c3ccccc3)c(=O)oc2C1	-21	-1	104	107
CC(C)(C)c1ccc(S(=O)(=O)Nc2ccc3[nH]c(=O)[nH]c3c2)cc1	11	2	105	100
CCOc1ncccc1C(=O)NCCc1c[nH]c2ccccc12	12	-5	99	105
COc1ccc(CNC(=O)Cn2c(=S)[nH]c3ccccc3c2=O)cc1	-18	-3	103	106
COC(=O)Cn1cc(C#N)c2ccccc21	5	/	102	111
CC(=O)N1N=C(c2ccc(C)cc2)OC1c1cccnc1 (configuration not stated)	-30	-1	107	100
CN1CCN(c2ccccc2C=C(C(=O)O)C(=O)O)CC1	-10	-8	104	103
O=C(NCCc1ccc(O)cc1)c1ccc2ccccc2c1	5	-12	101	104
O=C(O)c1cccc2[nH]c3c(c12)CCCC3	-12	i	99	102
O=C(O)CCC(=O)NCc1cccc(Oc2ccccc2)c1	-9	-13	101	101
CSc1sc(C(=O)NN)c2c1C=CCC2	-5	6	103	108
C=CCN(CC=C)C(=S)Nc1ccc2nsnc2c1	-25	-59	91	94
CC(c1ccccc1)C1C(C#N)=C(N)Oc2c1c(=O)oc1ccccc21 (configuration not stated)	-6	/	105	113
CCCn1nnc(NC(=S)NC(=O)c2ccc(-c3cc(Cl)ccc3Cl)o2)n1	-32	74	99	104
CN1/C(=C\C(=O)c2ccccc2)c2ccccc2CC1(C)C	-79	13	102	102
CN(C(=O)c1cccc(N2C(=O)C3C4C=CC(C4)C3C2=O)c1)C1CCCCC1 (configuration not stated)	-13	-11	102	106
CCn1c(-c2ccc3c(c2)OCCO3)cnc1SCC(=O)NC(=O)NCc1ccco1	-31	12	99	104
CCc1ccc(NC(=O)Cn2ncc3c(=O)oc4ccccc4c32)cc1	-4	7	99	106
Cn1c(=O)c2c(SCCN3CCOCC3)nc(-c3ccccc3Cl)nc2n(C)c1=O	-13	3	102	105
O=S(=O)(c1ccc(-n2nnc3ccccc32)nc1)N1CCCCC1	-10	3	106	106
CCNc1nc2n(c(=O)n1)CCN2CC	20	-5	100	101
Cc1ccc(CN(C)CC(=O)NC(C)C23CC4CC(CC(C4)C2)C3)o1 (configuration not stated)	-11	15	99	99
O=P1(c2ccccc2)C=Cn2c1cc1c2CCCC1 (configuration not stated)	-1	22	98	101
C/C(=C(/C#N)P(=NN=Nc1ccccc1)(N1CCOCC1)N1CCOCC1)N1CCCC1	-50	13	98	100
CC1(C)CCC2=C(O1)c1ccccc1C(=O)C2=O	8	2	89*	96*
O=C1NC(=S)NC(=O)C1=Cc1cccc(O)c1Cl	-1	18	99	103
Fc1cc(F)c2c(c1)C1C=CCC1C(c1cccnc1)N2 (configuration not stated)	-2	2	100	101
CC(C)CCNC(=O)C1CCN(Cc2cccc(OCc3ccccc3)c2)CC1	-7	/	74*	79*
CC1=CC(=C2C(=O)NC(=O)NC2=O)C=C(C)N1CCN1CCOCC1	-5	5	/	/
O=C(Nc1ccc(Br)cc1)c1ccc2c3c(onc13)-c1ccccc1C2=O	24	-3	100	102
C(=Nc1ccc2nc(-c3ccccc3)[nH]c2c1)c1ccccc1	-24	/	105	107
COC(=O)C1CCN(C(=O)C2c3ccccc3Oc3ccccc32)CC1	-10	3	103	102

Some of these compounds in order of molar mass, low to high:
SMILES	MenB inh	Mtb MbtI inh	PV pol inh	PV pol inh intensity
CCNc1nc2n(c(=O)n1)CCN2CC	20	-5	100	101
CC1(C)CCC2=C(O1)c1ccccc1C(=O)C2=O	8	2	89*	96*
O=P1(c2ccccc2)C=Cn2c1cc1c2CCCC1 (configuration not stated)	-1	22	98	101
O=C1NC(=S)NC(=O)C1=Cc1cccc(O)c1Cl	-1	18	99	103
Fc1cc(F)c2c(c1)C1C=CCC1C(c1cccnc1)N2 (configuration not stated)	-2	2	100	101
CN1/C(=C\C(=O)c2ccccc2)c2ccccc2CC1(C)C	-79	13	102	102
C(=Nc1ccc2nc(-c3ccccc3)[nH]c2c1)c1ccccc1	-24	/	105	107
O=S(=O)(c1ccc(-n2nnc3ccccc32)nc1)N1CCCCC1	-10	3	106	106
Cc1ccc(CN(C)CC(=O)NC(C)C23CC4CC(CC(C4)C2)C3)o1 (configuration not stated)	-11	15	99	99
CC1=CC(=C2C(=O)NC(=O)NC2=O)C=C(C)N1CCN1CCOCC1	-5	5	/	/
COC(=O)C1CCN(C(=O)C2c3ccccc3Oc3ccccc32)CC1	-10	3	103	102
CN(C(=O)c1cccc(N2C(=O)C3C4C=CC(C4)C3C2=O)c1)C1CCCCC1 (configuration not stated)	-13	-11	102	106
CC(C)CCNC(=O)C1CCN(Cc2cccc(OCc3ccccc3)c2)CC1	-7	/	74*	79*
CCCn1nnc(NC(=S)NC(=O)c2ccc(-c3cc(Cl)ccc3Cl)o2)n1	-32	74	99	104
Cn1c(=O)c2c(SCCN3CCOCC3)nc(-c3ccccc3Cl)nc2n(C)c1=O	-13	3	102	105
C/C(=C(/C#N)P(=NN=Nc1ccccc1)(N1CCOCC1)N1CCOCC1)N1CCCC1	-50	13	98	100

Later entries
SMILES	MenB inh	Mtb MbtI inh	PV pol inh	PV pol inh intensity
OC(CNC1CCCC1)COc1ccc(OCC(O)CNC2CCCC2)cc1 (configuration not stated)	-1	-15	100	101
FC(F)(F)c1ccc(NC(=S)N2CCn3cccc3C2c2cccs2)cc1 (configuration not stated)	8	14	102	103
Cc1ccc(NC(=O)NCCCN2CCC(N3CCCCC3)CC2)cc1C	-26	-10	102	102
CCS(=O)(=O)c1nc(S(=O)(=O)c2ccc(Cl)cc2)c(NCC2CCCO2)s1 (configuration not stated)	7	4	102	104
COc1ccccc1CC1(C)NC(=O)N(CC(=O)c2ccc3c(c2)OCO3)C1=O (configuration not stated)	3	20	107	103
NNC(=O)c1cccc(COc2ccc(C3SCCS3)cc2)c1	-11	-7	106	112
Cc1ccc(NNC(=S)NCC2CCCO2)c(C)c1 (configuration not stated)	-21	-12	100	99
Nc1ccc2c3c(cccc13)C(=O)C=C2	-33	20	83	192
Cc1c(C)c(C)c(CSc2ccccn2)c(C)c1C	-10	-13	106	111
CC(NC(=O)CSc1nc(N)cc(N)n1)C12CC3CC(CC(C3)C1)C2 (configuration not stated)	2	-7	107	111
O=C(Nc1ccccc1Cl)C1(c2ccccc2)CCOCC1	-3	/	105	102
c1ccc(CNCCSc2nnnn2-c2ccccc2)cc1	-6	-1	102	103
COc1ccc2c(c1)C1(Nc3ccccc3-c3nc4ccccc4n31)C(=O)N2C (configuration not stated)	5	-55	102	106
CC(C)CCNC(=O)C1CCN(c2nnc(-n3cccc3)s2)CC1	-19	6	106	109
CCN1C(=O)c2ccc(C(=O)NCC(C)C)cc2C1=O	4	-16	102	105
CC1CN(C(=O)/C=C/c2ccco2)C(C)CN1C(=O)/C=C/c1ccco1 (configuration not stated)	-13	34	102	103
CC(C)c1ccc2[nH]c(O)c(N=NC(=O)c3ccccc3O)c2c1	-14	11	100	102
Cn1c(CNc2ccc(F)cc2)nc2ccccc21	-14	-7	102	100
O=C(Nc1cccc(S(=O)(=O)c2cccc(NC(=O)c3ccco3)c2)c1)c1ccco1	-34	22	101	100
N/C(Cc1ccc(Cl)cc1)=N\O	18	0	101	102
CC1CCC(NC(=O)CCCn2c3ccccc3c3cn[nH]c(=O)c32)CC1 (configuration not stated)	-7	38	99	106
CCCc1ccc(OCCNC(=O)c2ccco2)cc1	/	-5	100	102
CCCC(=O)Nn1cnc2c(c1=O)C1(CCCC1)Cc1ccccc1-2	3	2	99	96
CC(CCc1ccccc1)NC(=O)CN1C(=O)c2ccccc2S1(=O)=O (configuration not stated)	/	-10	104	106
CC(C)(C)S(=O)(=O)c1cnc(-c2cnccn2)nc1N	-9	5	103	104
COc1ccc(OCC(=O)Nc2cc(OC)ccc2NC(=O)c2ccco2)cc1	5	0	99	103
O=C(C1c2ccccc2Oc2ccccc21)N(Cc1nnc(-c2ccccc2Cl)o1)C1CC1	-57	-12	104	103
Cc1cc(C(=O)NCc2ccco2)c2ccccc2n1	9	-3	101	111
S=c1[nH]c(-c2ccccc2)c(-c2ccccc2)o1	-36	90	105	101
Cc1cc(N2CCCC2)nc2ccc(NC(=S)NCCN3CCc4ccccc4C3)cc12	-23	-42	98	99
CCC(=O)NC(C)C12CC3CC(CC(C3)C1)C2 (configuration not stated)	-22	-10	100	102
Cn1c(=O)c2c(ncn2CC(O)CN2CCN(c3ncccn3)CC2)n(C)c1=O (configuration not stated)	-24	4	105	104
Cc1ccc2nc(-c3ccc4nc(N)sc4c3)oc2c1	-3	91	107	110
O=C1OCc2cc(-n3[nH]nnc3=S)ccc21	-2	34	98	105
C=CCn1c(SCC(=O)O)nnc1-c1ccc(Cl)cc1Cl	-22	-12	104	102
Cc1[nH]c2ccc(C(=O)NC(C)C)cc2c1C	-3	-60	99	103
CN1CCN(CC(=O)N2c3ccccc3Sc3ccc(Cl)cc32)CC1	0	2	102	100
O=C1NC(=O)N(Cc2ccco2)C(=O)/C1=C\c1ccco1	12	2	105	105
CCn1cnc2cc(NS(=O)(=O)c3ccc(C)cc3)ccc21	-7	-5	99	100
COc1ccc(S(=O)(=O)N(C(C)=O)c2ccc3oc(=O)sc3c2)cc1	-16	4	102	103
CCNC(=S)N1CCn2cccc2C1c1ccc(C)cc1 (configuration not stated)	-22	-7	103	98
NNc1ccc(Cl)c(C(=O)O)c1	/	5	100	102
CC(C)(C)NCC(=O)Nc1cc(C(C)(C)C)nn1-c1ccccc1	-14	-6	99	106
CC(=O)N1CCc2cc(C(=O)CN3CCN(Cc4ccccc4)CC3)ccc21	-2	7	102	101
CC(C)N1CN=C2SC(CO)(CO)C(=O)N2C1	2	1	102	103
Cc1cnc(Nc2nc3ccccc3o2)nc1C(=O)Nc1cccc(C(F)(F)F)c1	12	-7	101	104
CN(C=O)CP(=O)(O)CCc1ccccc1	-2	/	99	105
CCOC(=O)C1=C(C)NC(SCC(N)=O)=C(C#N)C1c1ccccc1 (configuration not stated)	2	3	103	103
CSc1nc2ccccc2n1CN1CCN(Cc2cccs2)CC1	15	9	100	98
CC(=O)N/C(N)=N/c1nc2ccccc2s1	-10	16	103	101
O=c1[nH]c(=S)[nH]c(O)c1N=Nc1ccc(O)cc1	-115	43	108	106
COc1cc(/C=C2\NC(=S)N(C)C2=O)ccc1OCc1ccccc1Cl	-10	3	102	103
CCCN(Cc1nnc(-c2ccco2)o1)C(=O)c1ccccc1SCC(=O)N1CCCC1	-6	7	103	101
O=C(c1cccnc1)N1CCN(CCN2C(=O)C3C4C=CC(C4)C3C2=O)CC1 (configuration not stated)	-7	1	100	103

From PubChem
